ClpP mod: qHTS Assay for Activators of ClpP; ATP-dependent Clp protease proteolytic subunit (Bacillus subtilis (strain 168)), P80244; purified B. subtilis ClpP, FRET peptide cleavage, 20 min; Potency, µM (series often up to 57.5 µM), inactives show top-dose activity change, negative = active; actives 1.9% (n = 340,000); AID 651965, 2013; active = well fitted falling curve with a large enough effect; inconclusive = small, poorly fitted or top-dose-only effect; inactive = no such curve, though single readings can be large or run the other way; note: potency is the fitted concentration of half-maximal effect; the source files actives as falling curves though it sought activators and does not explain the sign; nearly all actives have a fitted effect of over 65% in size; many hits overshoot -100%
Target sequence (P80244 whole entry, looked up): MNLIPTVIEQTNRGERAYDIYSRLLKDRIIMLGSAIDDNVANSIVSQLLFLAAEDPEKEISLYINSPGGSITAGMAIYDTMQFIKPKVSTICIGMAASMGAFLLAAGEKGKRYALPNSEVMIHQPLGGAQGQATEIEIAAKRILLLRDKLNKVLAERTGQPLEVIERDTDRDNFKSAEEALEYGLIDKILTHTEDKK
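Purified B. subtilis ClpP, 10 microg/mL final in Tris/HCl pH8 with KCl, BSA, glycerol and Tween-20, cleaved an Abz/nitrotyrosine-quenched decapeptide. Fluorescence (ex 320, em 430) was read at 0 and 20 min at room temperature. Delta was normalized to 5.8 microM ADEP and DMSO/no-enzyme controls.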
TRPV1 potentiator: enhances activation of the human vanilloid receptor TRPV1 | actives 0.02% (n = 320,000) | TRPV1-expressing cells, Fluo-8 calcium influx, capsaicin EC20 potentiation; host cell line not named in the record; control for the full effect not named in the record | Q8NER1 | potentiation, % at 8.33 µM; active means potentiation above 80%; inconclusive means 30% to 80%; inactive means below 30%; note: 0% is about no effect
Target sequence (Q8NER1 whole entry, looked up): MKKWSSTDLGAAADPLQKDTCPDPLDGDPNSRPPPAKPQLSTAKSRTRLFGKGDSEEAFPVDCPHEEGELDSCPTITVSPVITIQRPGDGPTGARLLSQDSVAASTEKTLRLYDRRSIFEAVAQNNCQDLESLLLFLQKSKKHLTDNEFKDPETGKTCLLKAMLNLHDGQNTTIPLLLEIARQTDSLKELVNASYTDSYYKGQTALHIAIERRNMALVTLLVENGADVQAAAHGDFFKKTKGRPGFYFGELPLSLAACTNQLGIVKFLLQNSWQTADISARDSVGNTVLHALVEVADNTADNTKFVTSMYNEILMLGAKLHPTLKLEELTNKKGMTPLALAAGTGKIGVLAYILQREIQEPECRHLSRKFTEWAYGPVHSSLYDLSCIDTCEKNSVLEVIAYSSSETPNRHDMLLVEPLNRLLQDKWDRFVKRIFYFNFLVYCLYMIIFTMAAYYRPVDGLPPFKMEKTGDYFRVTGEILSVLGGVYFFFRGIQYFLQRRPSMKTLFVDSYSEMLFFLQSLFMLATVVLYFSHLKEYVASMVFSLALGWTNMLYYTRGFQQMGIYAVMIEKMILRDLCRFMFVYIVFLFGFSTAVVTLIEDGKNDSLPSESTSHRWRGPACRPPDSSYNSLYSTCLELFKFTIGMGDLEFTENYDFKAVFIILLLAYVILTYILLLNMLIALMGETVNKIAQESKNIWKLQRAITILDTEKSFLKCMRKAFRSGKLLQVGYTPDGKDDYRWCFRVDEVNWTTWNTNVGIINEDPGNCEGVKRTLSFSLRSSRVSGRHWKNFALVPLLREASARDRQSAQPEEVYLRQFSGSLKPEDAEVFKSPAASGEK
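Cells expressing TRPV1 were dye-loaded with Fluo-8 and read kinetically: 10 s baseline, 3 min after compound (agonist portion), then 2 min after EC20 capsaicin (allosteric enhancer portion). Calcium-bound dye fluorescence at 480/520 nm.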
Sfp inh: inhibitors of Bacillus subtilis Sfp phosphopantetheinyl transferase; actives 3.5% (n = 310,000); Potency, µM, inactives show max response, negative = inhibition, most hits filed as inhibitors; Q9F4F7; AID 1490; Biochemical Sfp PPTase activity, qHTS; active = well fitted inhibition curve with a large enough effect; inconclusive = small, poorly fitted or top-dose-only effect, or another doubt; inactive = no such curve, though single readings can be large or run the other way;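 note: the enzyme is Sfp with the accession as filed and its product quenches rhodamine fluorescence; potency is the fitted concentration of half-maximal effect; 0% = enzyme reaction without inhibitor and -100% = no enzyme wells; top concentration of the series not given in the record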
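With Hepes-Na pH 7.6 buffer containing 10 mM MgCl2, Sfp (15 nM) modified BHQ-2-YbbR (12.5 uM) using rhodamine-CoA (5 uM). Two reads 30 minutes apart at 525/598 nm yielded each well's rate.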
Menin-MLL FL inh: displaces fluorescein MLL peptide from human menin; Fluorescence polarization, fluorescein-MLL peptide displacement from menin; AID 1766; FP activity change, % at 61.4 µM; 290,000 tested, under 10 active; inconclusive = falling polarisation curve, or a change in total fluorescence; inactive = total fluorescence flat and polarisation flat or rising; no compound was filed as active; the % refers to the polarisation; negative = inhibition;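 note: % of control where 0% means no effect; inhibitors lower the polarisation; unlabelled MLL peptide was the positive control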
CtBP-E1A blk: CtBP/E1A binding inhibition | activity change, % (no concentration beside the values) | AlphaScreen GST-E1A/His-CtBP binding, 1536-well; active compounds read low; control for the full effect not named in the record | actives 0.49% (n = 340,000); in the data active means activity change below about -65%; inconclusive means about -30% to -65%; inactive means above about -30%; note: % is set by controls: 0 for no effect and ±100 for the full control effect
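Protein mix (5X: 125 nM each GST-E1A, His-CtBP) was incubated with pinned compound 2 h at 37 deg C in dark, in 50 mM Tris pH 8.0 buffer with 300 mM NaCl. Glutathione donor and nickel acceptor beads followed; AlphaScreen signal read after 1 h.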
gsp agonist: gsp mutant agonism; Potency, µM (series often up to 76.9 µM), for the others: top-dose activation (cAMP increase), usual class: activators; gsp mutant cells, cAMP HTRF, 30 min; control for the full effect not named in the record; actives 0.13% (n = 340,000); active = well fitted activation curve with a large enough effect; inconclusive = small, poorly fitted or top-dose-only effect, or another doubt; inactive = no such curve, though single readings can be large or run the other way; cell line not stated here;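 note: phosphodiesterase inhibitor Ro 20-1724 added with compounds to block cAMP breakdown; potency is the fitted concentration of half-maximal effect; nearly all actives have a fitted effect of over 60% in size; about a fifth of the inactives were tested at one dose only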
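Cells stably selected in G418 were plated at 2000/well, grown 16-24 hr, then given compounds in DMSO with the PDE inhibitor […] (300 uM solution added) for 30 min at 37C; cAMP was read by HTRF.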
gsp antagonist: antagonists of gsp mutant (McCune-Albright syndrome). gsp-mutant cells, cAMP HTRF, 30 min; control for the full effect not named in the record. Potency, µM (titrated, usually from 76.9 µM), for inactives: at the top dose activity change, negative = inhibition, usual class: inhibitors. actives 0.4% (n = 340,000). AID 624288; active = falling curve of any shape with a large fitted effect; inconclusive = falling curve, mostly with a smaller effect; inactive = flat or rising curve; cell line not stated here;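 note: intracellular cAMP measured with PDE inhibitor Ro 20-1724 present during compound exposure; potency is the fitted concentration of half-maximal effect; % is set by controls: 0 for no effect and ±100 for the full control effect; nearly all actives have a fitted effect of over 65% in size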
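Measurement of cellular cAMP by homogeneous time-resolved fluorescence following a 30 min compound exposure at 37C. The PDE inhibitor […] was present throughout; the assay buffer was DPBS with 0.05% BSA and 0.005% Tween 20.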
The depositor's hits bear a star; ? = inconclusive; . = not tested or not shown; & = joins results of further samples; [ ] = remark or other dose. Rows are unselected. Share with any hit: about 5.3%.

SMILES	ClpP mod	TRPV1 potentiator	Sfp inh	Menin-MLL FL inh	CtBP-E1A blk	gsp agonist	gsp antagonist
CCN(CC)S(=O)(=O)c1ccc(C)c(NC(=O)COc2ccc3c(C)cc(=O)oc3c2)c1	25µM*	12	6%	6.0	-3	?	-13%
Cc1cc(Cl)ccc1NC(=O)COC(=O)c1nc2nccc(C)n2n1	.	-1	20%	0.2	0	-29%[15.4 µM]	.
C=CC[C@@H](CC(=O)N[C@@H](CO)Cc1ccccc1)C(=O)N[C@@H](COC(=O)[C@H](CC=C)CC(=O)OC(C)(C)C)Cc1c[nH]c2ccccc12	3.0%	.	.	.	-1	-2%	-30%
CCn1c(C)c(C(C)=O)c(SC)nc1=S	1.5%	-10	4%	2.8	7	-29%	10%
CCN(Cc1ccccc1)Cc1ccc(OCc2ccccc2)c(OC)c1	-3.0%	-10	2%	-0.9	.	-13%	2%
Cc1ccc(S(=O)(=O)NC(=O)N2CCCN(Cc3ccc(F)cc3)CC2)cc1	-0.4%	15	3%	-0.8	6	1%[15.4 µM]	7%
CC(NC(=O)NC12CC3CC(CC(C3)C1)C2)c1ccc2c(c1)OCO2 (centres undefined)	.	-20	3%	-3.1	3	-6%[15.4 µM]	.
COc1cc(C(F)(F)F)nc2c(Br)c(C(C)(C)C)nn12	.	-4	15%	-0.3	2	-9%[15.4 µM]	3%
O=C(NCC(c1cccnc1)N1CCOCC1)c1cccs1 (centres undefined)	3.3%	4	3%	0.8	4	-4%	5%
CCCCCC(C)NC(=O)CN1C(=O)NC(C)(c2ccc3ccccc3c2)C1=O (centres undefined)	1.4%	14	15%	.	-2	-11%	-29%
COC(=O)[C@H](C)NC(=O)NCCC1=CCCCC1	1.2%	-4	12%	4.5	0	2%[15.4 µM]	13%
CCCC(=O)Oc1cccc(C2NC(=O)c3ccccc3O2)c1 (centres undefined)	-27%	?	7%	-3.3	6	3%	9%
Cc1ncoc1C(=O)N1CCCC(N2CCN(c3cccc(C(F)(F)F)c3)CC2)C1 (centres undefined)	0.4%	0	5%	-1.9	0	-9%	-2%
O=C(NCCCn1ccnc1)c1cc(C2CC2)on1	-2.1%	21	8%	4.6	3	33%	0%
COc1ccc(NC(=O)O/N=C/c2ccc(N(C)C)cc2)cc1	.	3	7%	-2.0	-7	-2%	-5%
O=C(OC(C(=O)NC1CCCC1)c1ccncc1)C1=Cc2ccccc2OC1 (centres undefined)	-1.9%	3	14%	-5.8	6	-47%[inhibitor]	-29%
O=C(O)c1cccc(NC(=S)NC(NC(=O)c2ccccc2[N+](=O)[O-])C(Cl)(Cl)Cl)c1 (centres undefined)	-1.7%	-13	18%	6.0	3	-6%	10%
Cc1cc(C)cc(OCC(=O)OCC(=O)Nc2ccc(Cl)cn2)c1	-2.4%	-6	8%	7.3	2	?	6%
CN(Cc1ccccc1)C(=O)c1cn(C)c2ccc(S(=O)(=O)N3CCCC3)cc2c1=O	-5.3%	8	10%	.	5	24%	11%
CCCOc1cccc(C(=O)N(Cc2ccccc2)C2CCS(=O)(=O)C2)c1 (centres undefined)	0.4%	?	9%	0.5	16	19%[15.4 µM]	-38%
CSc1ccc(CCNS(=O)(=O)c2ccc3c(c2)C(C)(C)C(=O)N3C)cc1	-1.9%&-0.6%	2	12%	.	.	-1%	5%
CSc1nc(C)c(Cl)c(C)c1C#N	-16%	0	5%	2.3	8	0%	6%
C[N+](C)(C)CCCC(=O)c1ccc2c(c1)OCO2	-23%	-5	19%	0.1	-1	-29%	?
COc1ccc(-c2n[nH]c(=S)n2Cc2ccccc2)cc1OC	-1.0%	1	-11%	-2.9	0	-3%[15.4 µM]	0%
COc1cccc(NC(=O)C(C)C)c1	0.6%	-6	.	.	5	-3%	10%
COc1cccc(N2CCN(c3ccc([N+](=O)[O-])cn3)CC2)c1	-1.1%	-12	-13%	-0.9	5	3%	-14%
O=C(Nc1ccnn1C1CCN(C(=O)c2ccc(C(F)(F)F)cc2)CC1)C1CC1	1.6%	-1	6%	.	-9	-44%[inhibitor]	13%
CCOC(=O)C(C)N(c1ccccc1Cl)S(C)(=O)=O (centres undefined)	-0.4%	10	.	.	7	18%	5%
COc1ccc(C(=O)/C=C/c2cc(OC)c(O)c(OC)c2)c(F)c1	-1.3%	1	79µM*	?	18	?	10%
CN1C/C(=C/c2cccnc2)C(=O)/C(=C/c2cccnc2)C1	-1.0%	2	-9%	4.2	23	-12%	-3%
O=C(CN1CCc2ccccc2C1)Nc1ccccc1Cl	-4.1%	-20	5%	0.8	.	0%	-12%
Cc1cccc(NS(=O)(=O)c2cc(C(=O)N3CCCC3)ccc2Cl)c1	2.0%	3	-16%	0.1	8	-47%[inhibitor]	13%
CCOC(=O)c1c(-c2ccccc2)csc1N1C(=O)Nc2ccccc2N1O	-1.5%	-13	?	-1.4	.	-30%	-24%
CCc1ccc(NC(=O)CSc2nc(=O)n(CCCN3CCOCC3)c3c2CCCC3)cc1	-3.4%	1	.	.	-3	?	-10%
CC(C)(C)n1cnc2cc(NCc3ccc(Br)cc3)ccc21	.	-21	-14%	-8.3	-25	-54%[inhibitor]	-6%
CC(=O)N1CCOc2ccc(S(=O)(=O)Nc3cccc(C)c3)cc21	1.9%	1	14%	5.7	-4	31%	0%
O=S(Cc1ccc(Cl)cc1)c1ccccc1 (centres undefined)	.	.	.	.	-11	3%	6%
Cc1ccc(NC(=O)C2CCCN2C(=O)Oc2ccccc2)cc1 (centres undefined)	?	-6	20%	4.4	0	12%	-10%[15.4 µM]
COc1ccc(NC2CCCN(C(=O)CCN3CCCO3)C2)cc1 (centres undefined)	-4.7%	-16	15%	1.1	4	5%	4%
CC(=O)Nc1cc2nn(-c3ccccc3)nc2cc1Cl	20µM*	4	-3%	0.3	6	24%	-34%
COc1ccc(NC(=O)c2cccc3c2C(=O)N(C2CCCCC2)C3)cc1	0.7%	12	-6%	.	3	15%	-9%
O=S1CCCSC1c1cccnc1 (centres undefined)	-0.9%	13	5%	-1.9	4	-32%[inhibitor]	6%
Cc1ccc(S(=O)(=O)CC(=O)c2cc(C)c(O)c(C)c2)cc1	.	-3	17%	0.7	0	-1%	-6%
Brc1ccccc1Cn1c(-c2cscn2)nc2ccccc21	-29%	-1	-2%	2.4	-4	21%	?
Cc1ccc(C(=O)/C=C2\NCC(C)NC2=O)cc1 (centres undefined)	-1.5%	19	6%	-1.2	-3	0%	6%
O=C(CSc1ccccc1C(=O)O)NCC1CCCCC1	-0.5%	6	19%	-1.7	8	6%[15.4 µM]	4%
CC1CCCCC1NC(=O)CSc1nc2ccccc2[nH]1 (centres undefined)	.	2	14%	-0.5	1	4%[15.4 µM]	-4%
N#C/C(=C(\O)c1ccco1)c1ccccn1	-1.3%	0	-1%	-4.2	-4	8%	10%
C[C@]12CCC3C(CC[C@H]4CCCC[C@]34C)C1CC[C@@]2(O)CNCCO (some centres undefined)	-4.4%	-8	11%	0.8	4	14%[15.4 µM]	9%
CCN(C(=O)CSc1ccccn1)C1CCCCC1	-1.1%	.	.	.	0	?	-8%
O=C(CSc1nnc(CNC(=O)C23CC4CC(CC(C4)C2)C3)n1-c1ccc(F)cc1)Nc1ccccc1	1.4%	?	27%	-2.3	-4	-7%	-5%
CCN(CCO)c1ncnc2onc(-c3ccc(F)cc3)c12	-0.1%	-9	8%	-6.0	6	-32%[inhibitor]	5%
O[C@@H]1CN(CC2CCCCC2)[C@@H](c2ccc(Cl)cc2)C[C@H]1n1cc(-c2ccc(F)cc2)nn1	-1.0%	.	.	.	3	?	.
N#CC(C#N)=Cc1cccn1-c1ccc(C(=O)O)cc1	.	1	23%	11	5	-1%[15.4 µM]	-3%
O=C(COC(=O)/C=C/c1cccc(C(F)(F)F)c1)NC(=O)NCc1ccccc1	-1.8%	1	.	.	-17	29%	6%
COc1ccccc1NC(=O)NNC(=O)c1ccc2c(c1)NC(=O)C(C)(C)O2	.	20	5%	.	-1	-28%[15.4 µM]	5%
Cc1ccc(Cl)cc1N1CCN(S(=O)(=O)c2c(C)[nH]c(=O)[nH]c2=O)CC1	-0.1%	-7	9%	0.7	-3	-5%	-14%
CCOc1ccc(NC(=O)CSc2nc3ccsc3c(=O)n2CCCCC(=O)O)cc1	-1.4%	.	.	.	2	1%	.
Cc1ccc(S(=O)(=O)N/N=C/c2c(C)nn(-c3ccccc3)c2C)cc1	-2.9%	4	1%	-2.1	0	0%	-12%
CCOc1cc(C=O)ccc1OS(=O)(=O)c1ccc(NC(C)=O)cc1	1.2%	6	5%	2.9	.	-14%	-20%

Sorted by the number under gsp agonist (rising): three of the compounds above.
structure | gsp agonist
Cc1ccc(Cl)cc1N1CCN(S(=O)(=O)c2c(C)[nH]c(=O)[nH]c2=O)CC1 | -5%
Cc1ccc(S(=O)(=O)N/N=C/c2c(C)nn(-c3ccccc3)c2C)cc1 | 0%
CCOc1ccc(NC(=O)CSc2nc3ccsc3c(=O)n2CCCCC(=O)O)cc1 | 1%

Other entries:
SMILES	ClpP mod	TRPV1 potentiator	Sfp inh	Menin-MLL FL inh	CtBP-E1A blk	gsp agonist	gsp antagonist
COc1ccc(N(CC(=O)Nc2ccc(C)c(F)c2)S(=O)(=O)c2c(C)noc2C)cc1	-1.7%	4	14%	.	3	?	?
O=C(Nc1ccccc1Cc1ccccc1)c1ccc2c(c1)SC1=NS(=O)(=O)CCN12	?	-3	6%	8.3	-4	-27%	-8%
O=C(NCC1OCCc2ccccc21)c1cc(COc2ccc(F)cc2Cl)on1 (centres undefined)	0.1%	4	10%	4.7	.	-31%[inhibitor]	-3%
O=S(=O)(Nc1cccc(S(=O)(=O)N2CCCCCC2)c1)c1ccccc1	.	-5	9%	3.1	1	?	-20%
Cn1c(=O)n(C)c2cc(NC(=O)CSc3nnc(-c4ccccc4O)n3-c3ccccc3)ccc21	3.6%	-1	15%	2.2	-19	-34%	-20%
COc1ccc(/C=C2\SC(=O)N(CCc3nnc(N)s3)C2=O)cc1	-5.4%	-11	-20%	6.6	?	-8%	2%
Cc1onc(-c2ccccc2)c1NC(=O)N(CCC#N)Cc1ccccc1	.	-2	11%	-0.8	0	-8%[15.4 µM]	4%
CCC(=O)Nc1cccc(NC(=O)CSc2nnnn2C)c1	-1.5%	-6	13%	1.0	7	-28%	0%
